Compound activity as filed in PubChem BioAssay.
VDR inhibitor: vitamin D3 receptor (human) inhibition; VDR-SRC2-3 peptide fluorescence polarization, 2 h; Potency, µM, for inactives: max response, negative = inhibition, usual class: inhibitors; 0.93% of 400,000 active; active = well fitted inhibition curve with a large enough effect; inconclusive = small, poorly fitted or top-dose-only effect, or another doubt; inactive = no such curve, though single readings can be large or run the other way; also: series mostly up to about 120 µM
Target sequence (P11473 whole entry, looked up): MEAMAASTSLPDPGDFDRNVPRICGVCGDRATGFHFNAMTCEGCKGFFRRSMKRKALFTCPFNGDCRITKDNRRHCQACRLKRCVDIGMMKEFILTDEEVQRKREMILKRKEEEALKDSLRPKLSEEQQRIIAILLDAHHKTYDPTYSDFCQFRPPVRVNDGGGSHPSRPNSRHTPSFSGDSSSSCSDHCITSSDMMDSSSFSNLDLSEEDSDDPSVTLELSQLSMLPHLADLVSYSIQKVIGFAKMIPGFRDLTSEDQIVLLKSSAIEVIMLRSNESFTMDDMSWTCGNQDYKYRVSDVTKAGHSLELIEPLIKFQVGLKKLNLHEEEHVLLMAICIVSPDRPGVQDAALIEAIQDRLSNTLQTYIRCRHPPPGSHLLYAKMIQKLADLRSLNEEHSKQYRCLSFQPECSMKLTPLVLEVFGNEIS
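FP read-out; VDR + SRC2-3 coactivator peptide; 23 nl compound by pintool; 2 h RT incubation; reagents held at 4 deg C, protected from light.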
Numbers without * were called inactive; ? = inconclusive; & = joins results of further samples. % is scaled to controls: 0 for no effect and ±100 for the full control effect; potency is read from the fitted curve at half-maximal effect.

The opening 4 records, to show the layout:
VDR inhibitor	SMILES
11.4%	Cc1ccc(N(CC(=O)Nc2ccc(C)cn2)S(=O)(=O)c2c(C)nn(C)c2C)cc1
-7.9%	COc1ccc(S(=O)(=O)NCC2CCCO2)cc1NC(=O)c1ccc(Cl)cc1 (stereo not drawn)
7.4%	Cc1cccc(C(=O)Nc2sc(C)c(-c3ccccc3)c2C#N)c1
-7.6%	CCOC(=O)CC1C(=O)NCCN1C(=O)c1ccc(F)cc1F (stereo not drawn)

The whole of this part (from the top)
VDR inhibitor	SMILES
11.4%	Cc1ccc(N(CC(=O)Nc2ccc(C)cn2)S(=O)(=O)c2c(C)nn(C)c2C)cc1
-7.9%	COc1ccc(S(=O)(=O)NCC2CCCO2)cc1NC(=O)c1ccc(Cl)cc1 (stereo not drawn)
7.4%	Cc1cccc(C(=O)Nc2sc(C)c(-c3ccccc3)c2C#N)c1
-7.6%	CCOC(=O)CC1C(=O)NCCN1C(=O)c1ccc(F)cc1F (stereo not drawn)
-7.2%	COC(=O)c1cc(S(=O)(=O)N(C)C2CCCCC2)c[nH]1
-10.4%	O=C(O)/C=C/C(=O)N1CCN(Cc2ccc3c(c2)OCO3)CC1
-2.7%	CC1CCN(C(=O)CN(Cc2ccccc2)S(C)(=O)=O)CC1
3.8%	NS(=O)(=O)c1ccc(S(=O)(=O)N(Cc2ccccc2F)CC2CCCO2)cc1 (stereo not drawn)
-3.8%	O=C(NC1CCCCC1)C1c2ccccc2C(=O)N1Cc1ccco1 (stereo not drawn)
-10.7%	COc1cc(CC(=O)OCn2nnc3ccccc3c2=O)cc(OC)c1OC
16.5%	CCN(CC)S(=O)(=O)c1ccc2oc(C(=O)Nc3ccc(OC)cc3OC)c(C)c2c1
7.1%	COC(=O)C1=C(C)NC2=C(C(=O)CCC2)C1c1cccc(C)n1 (stereo not drawn)
-10.0%&-3.5%	Cc1ccn2c(c1)nc(=O)c1cc(S(=O)(=O)N3CCCCC3)ccc12
7.8%	CCc1cccc(NC(=O)c2oc3ccc4c(c3c2C)C(=O)CC(C)(C)O4)c1
0.9%	COc1ccc(/C=C(\C#N)C(=O)OCC(=O)NCc2ccccc2)cc1
-23.7%	CCCNC(=O)/C=C/C(=O)O
-16.6%	COc1cc(CCCN2C(=O)C(=O)NC[C@H]2Cc2cccc3ccccc23)cc(OC)c1OC
-15.0%	Cc1ccc(C(C#N)c2ccc(C(=O)c3ccc(F)cc3)cc2)cc1 (stereo not drawn)
-14.8%	Cn1c(=O)[nH]c(NC2CCCCC2)c([N+](=O)[O-])c1=O
8.8%	COc1ccc(NC(=O)c2cccnc2SC)cc1OC
11.6%	COc1ccc(OC)c(/C=C(\NC(=O)c2ccccc2)C(=O)N/N=C/c2ccc(C)s2)c1
4.0%	Cc1ccc(OCc2n[nH]c(=S)n2-c2ccc(C)cc2)cc1
-8.1%	Cc1ccc(S(=O)(=O)N(C)C)cc1NC(=O)c1cccnc1Oc1ccccc1
-4.0%	COc1ccc(C(=O)Nc2c(Cl)cc(Cl)cc2C(=O)N2CCC(C)CC2)cc1
10.1%	CCCCn1c(SCC(=O)/C(C#N)=C(\C)N)nc2ccccc2c1=O
-4.2%	COc1ccc(C(=O)OCC(=O)NC2CC2)cc1S(=O)(=O)Nc1ccc(C)cc1
-0.6%	CCOC(=O)CSc1nnc(-c2ccc3ncccc3c2)n1C
2.4%	COC(=O)c1sc(S(=O)(=O)NC(Cc2ccccc2)C(=O)O)c(C(=O)OC)c1C (stereo not drawn)
-7.7%	COc1ccc(-n2c(C)cc(-c3cn4cccc(C)c4n3)c2C)cc1
?	C#CCSc1nccc(-c2nn(-c3ccc(C)cc3)ccc2=O)n1

In a second layout: 2 of the compounds above.
compound	VDR inhibitor
CC1CCN(C(=O)CN(Cc2ccccc2)S(C)(=O)=O)CC1	-2.7%
NS(=O)(=O)c1ccc(S(=O)(=O)N(Cc2ccccc2F)CC2CCCO2)cc1 (stereo not drawn)	3.8%

Later entries:
VDR inhibitor	SMILES
5.5%	CSc1nc(C)c2c(n1)N(c1cccc(C)c1)CC2
-4.3%	NCC(=O)NCC(=O)OCc1ccccc1
2.0%	COc1cccc(/C=N/Nc2nnc(C)n2N)c1OCc1ccccc1Cl
15.3%	CC1CCCCN1CCNC(=O)c1ccc2c(=O)n(Cc3ccc(Cl)cc3)c(=S)[nH]c2c1 (stereo not drawn)
13.6%	C=CCn1c(CC(=O)OC)csc1=Nc1ccc(C(C)=O)cc1
-4.8%	Cn1c(CNc2cccc(C(F)(F)F)c2)n[nH]c1=S
-2.9%	C=CCOc1ccc(Cl)cc1C(=O)O
8.3%	CCOc1ccc2nc(SCC(=O)Nc3ccc(F)cc3)nc(-c3ccccc3)c2c1
4.8%	O=[N+]([O-])c1ccc(Cl)cc1N1CCCCC1
-1.4%	Cc1ccc(NC(=O)Cn2nc(C(F)(F)F)c3c2CCC3)cc1
21.3%	CC(=O)Nc1ccc(-c2csc(NC(=O)CCNC(=O)c3ccco3)n2)cc1
9.5%	CCCCNC(=O)C1CC(c2c(Cl)cccc2Cl)=NO1 (stereo not drawn)
-2.8%	COCCCN1C(=O)C(=O)/C(=C(/O)c2ccc(OC(C)C)cc2)C1c1cccnc1 (stereo not drawn)
6.7%	CCC(C)N(C)C1CCN(C(=S)Nc2cccc(OC)c2)CC1 (stereo not drawn)
3.5%	COCc1cc(N2CCN(c3ccccc3F)CC2)nc(-c2ccccc2)n1
15.1%	CC1(C2CC2)NC(=O)N(CC(=O)Nc2ccccc2C#N)C1=O (stereo not drawn)
-4.7%	O=C(COc1ccc2c3c(c(=O)oc2c1)CCCC3)NCCCN1CCOCC1
-1.6%	CC(=O)OC1COC(n2ccc3cc([N+](=O)[O-])ccc32)C(OC(C)=O)C1OC(C)=O (stereo not drawn)
-0.1%	COc1ccccc1/C=N/NC(=O)CSc1ccc2ccccc2n1
9.8%	O=C(Nc1cccc(C(=O)N2CCCC2)c1)c1ccccc1Cl
-7.0%	CSc1nc2nc3c(cn2n1)C(=O)CC(c1ccccc1)C3 (stereo not drawn)
-2.5%	N#Cc1cccc(-c2cncnc2NCc2cccs2)c1
7.6%	O=C(NNC(=O)c1cc(-c2ccccc2)nn1-c1ccccc1)c1ccccc1
17.2%	C/C=C/C1=CC(=O)C[C@H](c2ccc(OC)c(OC)c2)C1
-23.0%	CCOC(=O)N1CCC(NC(=O)c2cc3c(=O)[nH]c4ccccc4c3n2C)CC1
3.4%	O=C(CCCN1C(=O)C(c2ccccc2)Oc2cccnc21)Nc1cccc(F)c1 (stereo not drawn)
-15.0%	COc1ccc(C(C)=O)cc1COc1cccnc1[N+](=O)[O-]
-16.4%	CC(C)(C)c1ccc(Cn2c(=O)cnc3ccccc32)cc1
-0.1%	C=CCN1C(=O)C2(OCCCO2)c2ccccc21
5.3%	COc1ccc(/C=C/C(=O)Oc2cccc(/C=N/NC(=O)Cc3ccc(Br)cc3)c2)cc1
-8.4%	COc1ccc(-c2cc(=O)oc3c4c(ccc23)OCN(Cc2cccc(OC)c2)C4)cc1
7.8%	Cc1cc(Br)ccc1OCC(=O)NNC(=O)c1ccc(NC(=O)C2CC2)cc1
3.0%	COC(C(=O)N/N=C(\C)c1ccc(C)cc1)c1ccccc1 (stereo not drawn)
5.5%	NC(=O)c1ccccc1NS(=O)(=O)c1cccs1
6.7%	COc1cccc(CNc2nc3nc(C)c(Cl)c(=O)n3[nH]2)c1
-2.7%	COc1ccc2nc(N/C(N)=N/S(C)(=O)=O)nc(C)c2c1
-20.4%	Cc1cccc(-n2cnc3cc([N+](=O)[O-])ccc32)c1
-16.4%	Cc1nc([N+](=O)[O-])c(Sc2nc3ccc([N+](=O)[O-])cc3[nH]2)n1Cc1ccccc1
15.7%	Cc1cn2c(nc1=O)OC1C(O)C(COC(=O)c3ccccc3)OC12 (stereo not drawn)
?	O=C(CC1CCCC1)Nc1cc(S(=O)(=O)N2CCOCC2)ccc1O
-7.8%	Cc1cc(C)cc(NC(=O)C(OC(=O)c2ccc(O)cc2)c2ccccc2)c1 (stereo not drawn)
-1.1%	NS(=O)(=O)c1ccc(CCNC(=O)Cc2c[nH]c3ccccc23)cc1
-11.1%	CC1(N=Cc2cc(Cl)ccc2O)COP(=O)(NC2CCCC2)OC1 (stereo not drawn)
-12.9%	COC(=O)c1ccc(CSc2nc3c(c(=O)n2-c2ccc(F)cc2)SCC3)o1
-1.1%	COC(=O)[C@@H]1CCCN1Cc1nc(Cc2ccccc2F)no1
12.2%	Cc1cc(Cl)ccc1OCCCC(=O)NNC(=O)c1ccncc1
-5.8%	CCN1CCN(Cc2ccc(NC(=O)Nc3ccc(SC)cc3)cc2)CC1
-6.9%	COc1cccc(C=NNc2nnc(NN=Cc3cccc(OC)c3OC)c3ccccc23)c1OC
-0.4%	COCCn1c(=O)c(-c2ccc(F)cc2)nc2cnc(N(C)C)nc21
-4.0%	Cc1ccccc1CSc1nnc(C)n1N
0.3%	COc1ccc(CN(CC2CCCO2)S(=O)(=O)c2ccc(-n3cnnn3)c(OC)c2)cc1 (stereo not drawn)
6.9%	COc1ccc(NC(=O)Cn2ccc3c(OC)cccc3c2=O)cc1
-14.4%	CC(=O)c1ccc(N2CCN(S(=O)(=O)c3csc(C(N)=O)c3)CC2)cc1
-0.6%	CC(C)(C)c1ccc(C(=O)Nn2cnnc2)cc1
-2.1%	CC1CCCN(C(=O)CCNS(=O)(=O)c2ccc(Br)cc2)C1 (stereo not drawn)
1.4%	Cc1ccc(CC2CC(=O)N(CCc3ccc4c(c3)OCO4)C2=O)cc1 (stereo not drawn)
3.7%	CS(=O)(=O)N1CCCC(C(=O)N2CCOCC2)C1 (stereo not drawn)
-13.1%	CCc1nnc(NC(=O)CSc2ccc(-c3ccc(C)cc3)nn2)s1
?	C=CCCCCCCCCC(=O)Nc1ncccn1
6.5%	CCSc1ncc(C#N)c(N)n1

Remaining list, next part:
VDR inhibitor	SMILES
16.3%	CCn1ncc(/C=N/N=C2\CCC3C4CCc5cc(O)ccc5C4CCC23C)c1C (stereo not drawn)
2.6%	O=[N+]([O-])c1ccc(S(=O)(=O)Nc2ccc(-c3ccc(N4CCCC4)nn3)cc2)cc1
13.6%	CCCCn1c(Oc2cccc(C(=O)OC)c2)nc2c1c(=O)n(C)c(=O)n2C
?	CC(C)[C@H](NC(=O)OCc1ccccc1)C(=O)N[C@H](C=O)Cc1ccccc1
9.1%	Cc1ccc(C(=O)NCc2cccnc2)cc1S(=O)(=O)Nc1ccccc1
10.1%	CCOC(=O)N1CCN(C(=O)COC(=O)c2ccc(O)cc2O)CC1
10.5%	CCC(C)n1c(SCc2ccc(C(C)(C)C)cc2)nc2ccsc2c1=O (stereo not drawn)
9.6%	Cc1cc(C(=O)Nc2ccc3c(c2)OCCO3)ccc1[N+](=O)[O-]
-27.3%	O=C(Nc1nc2ccccc2[nH]1)c1ccccc1[N+](=O)[O-]
-4.6%	O=C(O)c1ccc(NS(=O)(=O)c2ccc3nnn(O)c3c2)cc1
10.8%	CCCCC(=O)Nc1cccc2c1C(=O)N(c1ccccc1)C2=O
-25.4%	CC(C(=O)N1CCOCCOCCOCC1)N1C(=O)c2ccccc2C1=O (stereo not drawn)
-8.5%&-9.2%	CCOC(=O)C1C(C(=O)OC)=C(c2ccc(OC)cc2)c2ccc(OC)cc2N1S(=O)(=O)C(F)(F)F (stereo not drawn)
8.1%	O=C(CN1CCN(C(=O)c2cccs2)CC1)NC1CCCCC1
0.2%	COc1ccc(SCCN2CC[C@@H](C(C)(C)C)CCC2=O)cc1
-1.4%	CC(C)c1cc(NCC2CCCO2)n2c(nc3ccccc32)c1C#N (stereo not drawn)
?	COC1(OC)C(/C=C/c2ccc(Cl)cc2)C(C#N)(C#N)C1(OC)OC (stereo not drawn)
9.9%	CCOc1cc(C)c(Cl)cc1S(=O)(=O)N(CC)CC
-9.5%	COc1cc(Br)cc2cc(S(=O)(=O)c3ccccc3)c(=O)oc12
20.5%	Cn1nc(-c2ccccc2)c(-c2nc(-c3ccc(Cl)cc3)no2)c1Cl
-3.9%	Cc1nc2ccccc2c(=O)n1NC(=O)Nc1ccccc1
7.5%	CCc1cc(C(=O)N2CCCC(CNS(=O)(=O)c3cccs3)C2)n(C)n1 (stereo not drawn)
-5.3%	O=C(NCC1CCCO1)c1cc([N+](=O)[O-])ccc1Cl (stereo not drawn)
-3.4%	CC1CCCCC1NC(=O)C1CCN(S(=O)(=O)c2cccc3nonc23)CC1 (stereo not drawn)
5.5%	CN(CC(=O)NCC1CCCO1)S(=O)(=O)c1cc(Cl)ccc1Cl (stereo not drawn)
-13.0%	Cc1ccc(NC(=S)NCc2ccc3c(c2)OCO3)cc1C
-17.1%	CC(C)C[C@@H](CN1CCC[C@@H]1CN1C(=O)C(=O)NC[C@@H]1Cc1ccccc1)N1C[C@H](Cc2ccccc2)N(CC2CCCCCC2)C(=O)C1=O
-1.0%	NC(=O)c1ncn([C@@H]2O[C@H](CNCc3cc(Br)ccc3OCc3ccccc3)[C@@H](O)[C@H]2O)n1
4.3%	CCc1nc2nc(C)cc(Nc3ccc(OC)cc3)n2n1
-9.3%	Cc1ccc2oc(=O)n(CCCOc3ccccc3)c2c1
-11.1%	COc1ccc(C(CNC(=O)c2cc(S(=O)(=O)N3CCCCC3)ccc2C)N2CCCC2)cc1 (stereo not drawn)
9.5%	CCCCOC(=O)c1ccc(OC(=O)c2sc3ncn(Cc4cccc(F)c4)c(=O)c3c2C)cc1
14.4%	Cc1ccc(N(CC(=O)N2CCN(c3ccc(F)cc3)CC2)S(=O)(=O)c2c(C)nn(C)c2C)cc1
7.5%	CCOC(=O)c1nn(-c2ccc(C)cc2)c(=O)cc1OCC(=O)Nc1cccc(OC)c1
-15.5%	CC(C)c1ccc(/C=C/C(=O)N2CCCCCC2)cc1

Pulled one by one from the entries so far (3):
VDR inhibitor	SMILES
-1.4%	CC(C)c1cc(NCC2CCCO2)n2c(nc3ccccc32)c1C#N (stereo not drawn)
-20.4%	Cc1cccc(-n2cnc3cc([N+](=O)[O-])ccc32)c1
-13.0%	Cc1ccc(NC(=S)NCc2ccc3c(c2)OCO3)cc1C

A portion of the library (hit frequency here may not be typical).
